Screening data (PubChem)
Sa growth 42C: S. aureus growth inhibition at 42 and 30 °C, primary screen, LtaS inhibitor project, RN4220, two temperatures | OD600, 20 h, 42 °C; hits give low values | relative growth, % (test concentration not listed) | 170,000 compounds, 0.53% hits;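 active = growth at 42 °C up to 50% and 20 or more points under that at 30 °C, or under 10% at both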;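 note: 300 nL library stock went into each well; scaled to the means of positive and negative controls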
HCMV UL50-53 inh: inhibitors of HCMV UL50-UL53 interaction, biochemical, HTRF | HCMV UL50-UL53 nuclear egress complex (human cytomegalovirus) | inhibition, % (no concentration beside the values) | 190,000 compounds, 0.15% hits | normalized percent inhibition;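 active = both replicates at 50% or more, plus weaker picks with an unusually low signal ratio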;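 note: stock transfer was 100 nL into about 20 µL; 0% = negative control wells and 100% = wells with untagged competitor protein; inactives centre near -12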
GIV Gai3 FP: inhibitors of GIV peptide binding to Galpha-i3, primary screen, biochemical, fluorescence polarization, FITC-GIV GBA peptide, rat Galphai3; 210,000 compounds, 0.42% hits; percent of control (FP), % (no concentration beside the values); 90 min; hits give low values; scaled: aluminum fluoride 0%, vehicle 100%;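 active = replicate mean at 85% of control or lower, very high polarization wells dropped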;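 note: wells of about 15 µL received 100 nL stock; the first replicate is given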
Target sequence (P08753 whole entry, looked up): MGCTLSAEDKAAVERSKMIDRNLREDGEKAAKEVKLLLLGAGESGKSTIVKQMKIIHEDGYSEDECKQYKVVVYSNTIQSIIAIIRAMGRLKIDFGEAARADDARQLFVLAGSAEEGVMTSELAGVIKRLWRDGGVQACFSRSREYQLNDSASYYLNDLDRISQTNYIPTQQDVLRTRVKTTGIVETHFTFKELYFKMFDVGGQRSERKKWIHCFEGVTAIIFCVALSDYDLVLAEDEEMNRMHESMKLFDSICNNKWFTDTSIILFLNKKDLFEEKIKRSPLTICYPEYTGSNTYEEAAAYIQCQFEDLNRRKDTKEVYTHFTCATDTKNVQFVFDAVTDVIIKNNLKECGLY
Sa growth 42C second temp: second read-out of Sa growth 42C, no call of its own (marks repeat the call); relative growth, %; measured here: growth at 30 °C;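 optical density after 20 h as mean of two plates; 100% = untreated growth and lower means inhibition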
Active calls of the source: *; / = no result given; & = joins results of further samples.

Compound	Sa growth 42C	Sa growth 42C second temp	HCMV UL50-53 inh	GIV Gai3 FP
CCC(=O)Nc1sc(Cc2ccccc2)c(C)c1C(=O)OC	93	94	10	/
CCCOc1ccc(C(C)(N)C(=O)O)cc1 (stereo not given)	92	87	2	105
CN(C)c1ccc(CN2CCCCCC2)cc1	109	101	3	104
CCc1ccc(NC(=O)/C=C/C(=O)O)cc1	/	/	-17	96
CC(C)(C)c1ccc(C(=O)NCC(=O)O)cc1	110	94	-12	/
COc1ccc(C2C(C#N)=C(N)OC3=C2C(=O)CC(C)(C)C3)cc1COc1ccc([N+](=O)[O-])c(C)c1 (stereo not given)	/	/	-12	105
O=C(Nc1cccc(-c2nc3ccccc3o2)c1)c1ccc(S(=O)(=O)N2CCOCC2)cc1	/	/	0	97
CCC(=O)N1c2ccccc2NC2=C(C(=O)CC(c3cccc([N+](=O)[O-])c3)C2)C1c1ccc(OC)cc1 (stereo not given)	/	/	-20	106
O=C(c1ccc(Br)cc1)c1n[nH]c(C(=O)c2ccccc2)c1O	91	80	-10	101
COc1ccc(CCNC(=O)C2CCN(c3ncnc4c3nc3n4CCCCC3)CC2)c(OC)c1	118	99	/	107
Cc1ccc(-n2ccc(=O)c(C(=O)Nc3ccc(S(N)(=O)=O)cc3)n2)cc1	79	91	-38&-42	102&106
CN1c2ccccc2N(C)C1c1cccn1C	98	97	0	/

One compound at a time (already shown):
`COc1ccc(CCNC(=O)C2CCN(c3ncnc4c3nc3n4CCCCC3)CC2)c(OC)c1` is entered as Sa growth 42C: 118; Sa growth 42C second temp: 99; HCMV UL50-53 inh: /; GIV Gai3 FP: 107
`CCC(=O)N1c2ccccc2NC2=C(C(=O)CC(c3cccc([N+](=O)[O-])c3)C2)C1c1ccc(OC)cc1` (stereo not given) is entered as Sa growth 42C: /; Sa growth 42C second temp: /; HCMV UL50-53 inh: -20; GIV Gai3 FP: 106

Following part:
Compound	Sa growth 42C	Sa growth 42C second temp	HCMV UL50-53 inh	GIV Gai3 FP
CCN(CC(=O)Nc1ccc(S(=O)(=O)N(C)C)cc1)CC(=O)Nc1ccccc1C(F)(F)F	89	96	-12	/
COc1ccc2c(C)nc(/N=C(N)/N=C(\C)c3ccccc3C(=O)O)nc2c1	98	65	/	129
N=c1n(Cc2ccccc2)c2ccccc2n1CC(O)c1ccc(Br)cc1 (stereo not given)	87	11	7	105
OC(Cc1cccnc1)(c1ccccc1)c1ccc(Cl)cc1 (stereo not given)	110	105	2	97
COc1ccc(Cl)cc1NC(=O)c1c(-c2ccc(F)cc2)noc1N1CCOCC1	/	/	-8	96
CCc1ccc(CNC(=O)c2cc3ccccn3n2)cc1	87	94	/	102
C[N+]1(CCCCC[N+]2(C)CCCC2)CCCC1	/	/	-7&2	98
CCOC(=O)c1sc(NC(=O)c2sc3ccccc3c2Cl)nc1-c1ccccc1	/	/	-15	102
CC1CC(C)CN(C(=O)C2c3ccccc3C(=O)N(C)C2c2cn(C)c3ccccc23)C1 (stereo not given)	114	85	/	101
Cc1ccc(-c2nc3n(n2)C2(CCCCC2)[C@@H]2CCCC[C@@H]2N3C(=O)c2cccs2)cc1	119	92	4	107
CC(C)c1cc(CN2CCN(c3ccccc3)CC2)c(O)c(CN2CCN(c3ccccc3)CC2)c1	92	104	/	102
CC(C)(C)NC(=O)c1ccc(C(C)(C)C)cc1	102	93	-12	/

Some of the entries so far, as labelled records.
SMILES: OC(Cc1cccnc1)(c1ccccc1)c1ccc(Cl)cc1 (stereo not given)
  Sa growth 42C: 110
  Sa growth 42C second temp: 105
  HCMV UL50-53 inh: 2
  GIV Gai3 FP: 97
SMILES: COc1ccc(Cl)cc1NC(=O)c1c(-c2ccc(F)cc2)noc1N1CCOCC1
  Sa growth 42C: /
  Sa growth 42C second temp: /
  HCMV UL50-53 inh: -8
  GIV Gai3 FP: 96
SMILES: CCc1ccc(CNC(=O)c2cc3ccccn3n2)cc1
  Sa growth 42C: 87
  Sa growth 42C second temp: 94
  HCMV UL50-53 inh: /
  GIV Gai3 FP: 102
SMILES: C[N+]1(CCCCC[N+]2(C)CCCC2)CCCC1
  Sa growth 42C: /
  Sa growth 42C second temp: /
  HCMV UL50-53 inh: -7&2
  GIV Gai3 FP: 98

Remaining list, next part.
Compound	Sa growth 42C	Sa growth 42C second temp	HCMV UL50-53 inh	GIV Gai3 FP
Cc1nn(-c2ccccc2)c2sc(C(=O)Nc3ccccc3)cc12	91	102	21	/
Cc1noc2ncnc(SCc3ccc(Cl)cc3)c12	110	82	/	100
Cc1ccc(-n2c(C)cc(/C=C3/C(=O)N(C4CCCCC4)C(=S)N3C)c2C)cc1	92	99	/	105
O=C(O)C(CCCCN1C(=O)C2C3C=CC(C3)C2C1=O)N1C(=O)C2C3C=CC(C3)C2C1=O (stereo not given)	/	/	-34	106
CCOc1ccc2[nH]c(=S)sc2c1	73	38	11	104
CNC(=O)COc1ccccc1O	98	95	8	/
COCCN(Cc1ccco1)C(=O)c1noc2c1COc1ccc(C)cc1-2	87	88	/	106
O=C(CSc1nc2ccccc2nc1Cc1ccccc1)Nc1ccccc1C(F)(F)F	89	92	/	101
Cc1ccc(S(=O)(=O)NCC(=O)OCc2cc(Cl)cc3c2OCOC3)cc1	95	87	-10	/
CCOCCCNC(=O)c1cc2c(=O)n(C)c3ccccc3c2n1C	115	88	-31	102
O=C(C1Cc2ccccc2CN1S(=O)(=O)c1cccs1)N1CCCCC1 (stereo not given)	99	105	17	/
Cc1nc2nc[nH]n2c(=O)c1NC(=O)Nc1ccc2c(c1)OCCO2	/	/	11	107
CCc1ccc(NC(=O)CSc2nc3nccnc3c(=O)n2CCC(C)C)cc1	83	78	/	101
COC(=O)c1ccc(CSc2nc(CN3CCOCC3)nc3sc4c(c23)CCCC4)o1	95	89	-24	/
Cc1cc(=O)n2[nH]c(CN(C(=O)C(C)C)c3ccc(F)cc3)nc2n1	/	/	-28	106
Cc1ccc2nc(SCC(=O)N3CCc4ccccc43)[nH]c2c1	128	87	-25	/
FC(F)(F)c1ccnc(N2CCN(Cc3c[nH]c4ccccc34)CC2)c1	103	95	-7	98
COCCNS(=O)(=O)c1cc(-c2cc(C)no2)sc1C	/	/	-18	104
CC(C)n1nc(CC(=O)O)c2ccccc2c1=O	77	89	-28	100
COC(=O)c1c(COC(=O)C2=COCCO2)nc2ccccc2c1C	106	101	0	/
Cc1ccc(CNC(=O)c2c(O)nc3c(C)cccn3c2=O)cc1	96	89	-21	97
COc1ccccc1NC(=O)c1nnn(-c2ccc(F)cc2)c1C	87	89	-13	100
Cn1c(Cn2ccnc2)nc2ccccc21	95	93	-4	104
CC(C)ON1C(=O)C2C3C=CC(O3)C2C1=O (stereo not given)	85	109	-14	98

Sorted by SMILES length (low to high): three of the compounds above
Compound	Sa growth 42C	Sa growth 42C second temp	HCMV UL50-53 inh	GIV Gai3 FP
CCOc1ccc2[nH]c(=S)sc2c1	73	38	11	104
OC(Cc1cccnc1)(c1ccccc1)c1ccc(Cl)cc1 (stereo not given)	110	105	2	97
CC(C)c1cc(CN2CCN(c3ccccc3)CC2)c(O)c(CN2CCN(c3ccccc3)CC2)c1	92	104	/	102

Next compounds follow:
Compound	Sa growth 42C	Sa growth 42C second temp	HCMV UL50-53 inh	GIV Gai3 FP
Cc1ccc2occ(CN(C)CCc3ccccn3)c(=O)c2c1	93	104	-1	108
O=C(CSc1ccc2ccccc2c1)NCCc1ccc(O)c(O)c1	98	67	-41	/
COCCOC(=O)c1c(C)oc2c1cc(NS(=O)(=O)c1ccc(Cl)c(C)c1)c1ccccc12	100	95	-2	104
Cc1ccc(CNc2ccc3c(c2)ncn3C(C)C)cc1	78	60	-6	103
CC(C)CCNC(=O)C1CCCN(S(=O)(=O)N2CCC3(CC2)OCCO3)C1 (stereo not given)	99	75	-27	98
Cc1cc(C(=O)COC(=O)c2ccc(Cl)s2)c(C)n1-c1ncn[nH]1	139	93	-8	/
COc1cccc(CN(CCCN2CCOCC2)C(=O)c2cc3sccc3n2Cc2ccccc2)c1	104	69	0	105
Cc1ccc(NC(=O)CC2CCC2)cc1C	105	100	-10	/
O=C(c1cccc2c1NC(c1ccc([N+](=O)[O-])cc1)C1CC=CC21)N1CCOCC1 (stereo not given)	/	/	-67	104
COc1ccc(NC(=O)c2ccnc(Nc3cc(OC)cc(OC)c3)c2)cc1	/	/	2	99
O=C1Nc2cc(C(=O)N3CCc4ccccc4C3)ccc2N2CCCCC12 (stereo not given)	/	/	-26	102
CN(C(=O)COC(=O)c1cccc2ccccc12)C1CCS(=O)(=O)C1 (stereo not given)	100	89	-80	/
CCOc1ccc(S(=O)(=O)NCCc2csc(-c3ccc(Cl)cc3)n2)cc1	94	87	/	102
CN(C(=O)COC(=O)c1cccnc1N1CCCC1)c1c(N)n(Cc2ccccc2)c(=O)[nH]c1=O	77	96	-5	/
O=C(NCc1nc(-c2ccc(C(F)(F)F)cc2)no1)C1CCCCC1	121	100	2	107
COc1ccc(NC(=O)CSc2ccc3nc(-c4ccccc4)cn3n2)cc1OC	95	91	/	111
Cc1cc2c(cc1S(=O)(=O)N1CCCc3ccccc31)OCCN2C	111	88	-12	103
COc1ccc(Cn2c(C)csc2=Nc2cccnc2)cc1OC	109	105	3	/
N#Cc1ccccc1Cn1c(SCC(=O)NCc2ccccc2)nc2ccccc21	102	86	/	106
CC(=O)Nc1ccc(NC(=O)Cn2nc(N3CCN(c4ccc(F)cc4)CC3)ccc2=O)cc1	/	/	-15	104
O=C(CSc1ncccc1C(=O)O)NC1CCCc2ccccc21 (stereo not given)	93	89	10	/
O=c1[nH]c(O)c(/C=C2\C=Nc3ccccc32)[nH]1	/	/	-19	105
O=C(/C=C/c1ccco1)Nc1ccc(F)cc1	92	79	/	104
Cc1ccc2cccc(NC(=S)NC(=O)c3ccn(C)n3)c2n1	112	73	-16	105
CCCCN(C)Cn1ncn(C)c1=S	92	98	-24	/
CC(C)(C(=O)c1ccccc1)/[N+]([O-])=C/c1ccc(F)cc1	106	92	-24	/
Cn1cc2nc(SCC(=O)Nc3cc(F)ccc3F)n(C3CCCC3)c(=O)c2n1	/	/	2	103
COc1ccc2c(c1)c1c(c(=O)n(Cc3ccccc3)c(=O)n1Cc1ccccc1Cl)n2C	121	99	/	109
O=C(Nc1ccccc1)N(Cc1nc(-c2ccccc2)no1)C1CCCCC1	98	101	-13	99
Cn1c(CC(=O)Nc2ccccc2)nnc1SCCOc1ccccc1	98	102	9	101
COc1ccc(-c2cc3nc(C4CCN(C(=O)OC(C)(C)C)CC4)c(C(=O)Nc4cc(C)cc(C)c4)cn3n2)cc1	110	95	-24	106
N=C1C(c2nc3ccccc3s2)=C(O)CN1C1CCCCC1	101	87	-2	/
O=C(CN1CCC(N2CCCCC2)CC1)Nc1ccc2c(c1)OCCO2	71	92	9	100
O=C(c1ccc(Cl)cc1)N1CCN(CCc2ccccn2)CC1	/	/	-14	100
CCOC(=O)C1CCN(C(=O)c2cc(C(C)(C)C)nn2Cc2ccccc2)CC1	91	87	-25	98
C=Cc1ccc(CSc2nccn3nc(-c4ccc(F)cc4)cc23)cc1	/	/	10	106
Cc1cc(C(=O)COC(=O)c2ccc(CN3CCCC3=O)cc2)c(C)n1C	119	98	-16	/
COc1ccc(-n2nnnc2C2CCN(S(=O)(=O)c3cccc(Br)c3)CC2)cc1	/	/	0	107
CSc1cccc(NC(=S)NCCCO)c1	105	96	4	102
Brc1ccc2ncnc(N3CCCC3)c2c1	86	57	-8	106
CN1C(=O)c2ccccc2Sc2ccc(NC(=O)Nc3ccccc3F)cc21	94	92	11	97
